RE007 growth inh: less growth of the S. pombe RE007 Vpr strain | actives 0.21% (n = 360,000) | S. pombe RE007 Vpr strain, BacTiter-Glo ATP luminescence, 24 h; control for the full effect not named in the record | Potency, µM (doses to about 92.2 µM), for inactives: top-dose activity change, negative = less growth | AID 651644; active = well fitted falling curve with a large enough effect; inconclusive = small, poorly fitted or top-dose-only effect; inactive = no such curve, though single readings can be large or run the other way;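 further: on the % scale 0 is the no-effect control and ±100 the full control effect; nearly all actives have a fitted effect of over 50% in size; the assay follows cell death caused by Vpr and the record does not say whether a fall means rescue or toxicity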
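Fission yeast RE007 carrying one integrated HIV-1 vpr copy, seeded at OD 0.01 in PMG+AL medium with 23 nL pinned compound. Grown 24 h at 30 degrees; viability read by BacTiter-Glo luminescence after 5 min.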
NS1 function inh: inhibitors of influenza NS1 protein function | Potency, µM (highest dose often 46.1 µM), for inactives: top-dose activity, positive = more growth | S. cerevisiae slowed by influenza A NS1, growth recovery by OD600 | actives 0.4% (n = 270,000) | AID 2326; further: actives are rising curves; nearly all actives have a fitted effect of over 50% in size
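OD600 was taken as the measure of yeast growth restored by compound in an NS1-expressing S. cerevisiae strain. Cells had been washed out of glucose medium and diluted 1:100 into galactose -URA medium, pH 6.0.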
2A StopGo: lowers the luciferase signal of an FMDV 2A StopGo reporter; human cells with a luciferase reporter of 2A StopGo recoding; control for the full effect not named in the record; Potency, µM (top dose mostly 57.9 µM), inactives show at the highest dose signal change, negative = less light; actives 1.2% (n = 410,000); AID 1159524; active = well fitted falling curve with a large enough effect; inconclusive = small, poorly fitted or top-dose-only effect; inactive = no such curve, though single readings can be large or run the other way; tested in HEK293T cells; further: on the % scale 0 is the no-effect control and ±100 the full control effect; nearly all actives have a fitted effect of over 45% in size; luciferase light after 4 h
LASV entry inh: Lassa virus entry inhibition; Lassa virus pseudotype entry inhibition, cell reporter; control for the full effect not named in the record; Potency, µM (series often up to 37.9 µM), for the others: at the highest dose activity change, negative = inhibition, most hits filed as inhibitors; actives 1.2% (n = 300,000); AID 540256; active means well fitted inhibition curve with a large enough effect; inconclusive means small, poorly fitted or top-dose-only effect, or effect the other way; inactive means flat fitted curve, though single readings scatter; tested in HEK293 cells; further: on the % scale 0 is the no-effect control and ±100 the full control effect; nearly all actives have a fitted effect of over 50% in size; luciferase read-out
Cruzain Triton: cruzain (T. cruzi) inhibition with detergent; actives 0.43% (n = 200,000); purified cruzain, Z-FR-AMC fluorescence, 0.01% Triton; P25779; Potency, µM, without a hit: max response, negative = inhibition, hits mostly inhibitors; active means well fitted curve in the direction sought with a large enough effect; inconclusive means small, poorly fitted or top-dose-only effect, or another doubt; inactive means no such curve, though single readings can be large; an effect the other way counts as inactive or inconclusive;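 further: plate controls were neutral wells for no effect and buffer without enzyme for full effect; nearly all actives have a fitted effect of over 40% in size; top concentration of the series not given in the record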
Target sequence (P25779 123-467 limits assumed): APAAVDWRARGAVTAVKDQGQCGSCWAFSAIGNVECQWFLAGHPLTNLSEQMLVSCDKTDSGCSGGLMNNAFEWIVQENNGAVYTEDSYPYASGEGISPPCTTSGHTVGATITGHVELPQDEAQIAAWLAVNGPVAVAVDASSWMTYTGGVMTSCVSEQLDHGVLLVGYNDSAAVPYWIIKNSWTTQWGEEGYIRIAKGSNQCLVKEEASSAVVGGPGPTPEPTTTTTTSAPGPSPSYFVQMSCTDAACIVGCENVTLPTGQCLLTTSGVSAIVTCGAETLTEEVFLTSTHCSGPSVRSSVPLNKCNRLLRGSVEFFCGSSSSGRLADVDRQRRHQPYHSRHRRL
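Read-out: AMC fluorescence (360 nm excitation, 450 nm emission), four reads over 2 min, first-to-third difference used. Conditions: cruzain 1.5 nM, Z-FR-AMC 2 uM, pH 5.5 acetate, 5 mM DTT, 0.01% Triton X-100.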
MARV entry inh: Marburg virus entry inhibition. Marburg virus pseudotyped entry inhibition, cell reporter; control for the full effect not named in the record; about a third of the inactives were read at about 46 µM. Potency, µM (titrated, usually from 37.8 µM), inactives show top-dose activity change, negative = inhibition, most hits filed as inhibitors. actives 1.8% (n = 300,000). AID 540276; active = well fitted inhibition curve with a large enough effect; inconclusive = small, poorly fitted or top-dose-only effect, or effect the other way; inactive = flat fitted curve, though single readings scatter; tested in HEK293 cells; about a fifth of its hits are not listed in these tables; further: on the % scale 0 is the no-effect control and ±100 the full control effect; luciferase read-out
SARS PLP yeast: inhibitors of SARS-CoV papain-like protease in yeast | S. cerevisiae expressing SARS-CoV PLpro, growth rescue; control for the full effect not named in the record | actives 0.19% (n = 330,000) | Potency, µM (doses to about 32.9 µM), inactives show top-dose activity, positive = growth rescue | AID 485353; further: 0% is about no effect; nearly all actives have a fitted effect of over 55% in size; growth read by luminescence after 48 h
Cruzain inh noDet: cruzain (T. cruzi) inhibition without detergent; purified cruzain, Z-FR-AMC fluorescence, no detergent; P25779; Potency, µM, without a hit: max response, negative = inhibition, usual class: inhibitors; actives 2.3% (n = 200,000); active means well fitted curve in the direction sought with a large enough effect; inconclusive means small, poorly fitted or top-dose-only effect, or another doubt; inactive means no such curve, though single readings can be large; an effect the other way counts as inactive or inconclusive;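 further: plate controls were enzyme without inhibitor for no effect and buffer without enzyme for full effect; nearly all actives have a fitted effect of over 40% in size; top concentration of the series not given in the record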
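Detergent-free condition (0.00005% Triton X-100) in acetate buffer pH 5.5 with DTT. 1.5 nM enzyme and compound were pre-mixed 15 min, then 2 uM Z-FR-AMC substrate added; reaction progress from fluorescence change between first and third reads (60 s).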
An asterisk follows results filed as active; ? = inconclusive; . = no result given; & = joins results of further samples; [ ] = another dose, or the depositor's remark. Unless noted, the call rests on the fitted dose curve; in most records, active means well fitted rising curve with a large enough effect; inconclusive means small, poorly fitted or top-dose-only effect; inactive means no such curve, though single readings can be large or run the other way. Potency means the concentration at half of the fitted maximal effect.

Values run as follows: MARV entry inh	LASV entry inh	RE007 growth inh	SARS PLP yeast	Cruzain inh noDet	NS1 function inh	2A StopGo	Cruzain Triton
1: O=C(Cn1nc(C(=O)O)c2ccccc2c1=O)Nc1cccc(Br)c1
 : -9.4%[46.1 µM]	-6.4%[46.1 µM]	-11.2%	-1.0%	.	-31.1%	-15.9%	.
2: CCC(C)NC(=O)CNC(=S)N(Cc1ccccc1)Cc1cccnc1 (stereo unspecified)
 : -14.7%	4.5%	5.5%	-8.2%	10.6%	1.7%	12.7%	1.1%
3: CC(C)c1nc(CNC(=O)C2CCC(=O)N(CCc3cccc(F)c3)C2)cs1 (stereo unspecified)
 : 16.3%	-7.0%	-0.1%	0.7%	.	0.4%	2.0%	.
4: O=C(Cc1ccccc1[N+](=O)[O-])NCc1ccncc1
 : ?	-5.1%	0.4%	3.0%	.	7.9%	9.5%	.
5: COc1cccc(CNC(=O)c2ccc(C(=O)NCc3cccc(OC)c3)cc2)c1
 : -25.4%[46.1 µM]	-9.4%[46.1 µM]	-14.0%	?	.	12.1%	0.0%	.
6: C=CCOc1ccc(/C(O)=C2/C(=O)C(=O)N(CCCN3CCOCC3)C2c2ccccc2)cc1 (stereo unspecified)
 : 11.9%	14.8%	-25.4%	.	.	.	19.9%	.
7: OCCN(Cc1ccccc1)C(=S)Nc1ccc(Cl)cc1Cl
 : -5.0%[46.1 µM]	?	16.8%	-2.4%	.	.	74.2%[activator]	.
8: CCCCC(=O)Nc1sc(C(=O)N(CC)CC)c(C)c1C(=O)OC
 : ?	14.1%	-29.1%	-1.1%	?	-8.3%	-14.7%	-8.7%
9: O=C(CSc1nc(-c2ccccc2)c(-c2ccccc2)o1)NC1CCS(=O)(=O)C1 (stereo unspecified)
 : 0.3%[46.1 µM]	-11.8%	-21.2%	1.0%	.	.	-29.3%	.
10: COCCn1c(SCc2nc3ccccc3c(=O)[nH]2)nc2ccccc2c1=O
 : -5.8%[46.1 µM]	.	14.3%	0.4%	.	-1.9%	?	.
11: Cc1ccc(S(=O)(=O)Nc2ccc(-c3cn4ccc(C)cc4n3)cc2)cc1
 : .	.	-4.2%	-0.5%	?	20.1%	11.6%	-8.3%
12: Cc1ccc(-c2c(C)sc3nc[nH]c(=O)c23)cc1C
 : ?	-5.3%	16.9%	-7.0%	.	-52.8%	?	.
13: COc1ccc(-c2csc(-c3ccccc3)n2)c(OC)c1
 : ?	?	-6.4%	-17.8%	.	.	17.4%	.
14: COc1cccc(NC(=O)c2cc(C(=O)Nc3cccc(OC)c3)n(C)n2)c1
 : -11.9%	-2.1%	2.9%	2.5%	2.4%	4.1%	?	1.2%
15: CC1CCCN(S(=O)(=O)c2ccc(NC(=O)CNC3CCCC3)cc2)C1 (stereo unspecified)
 : ?	-0.8%	-9.8%	0.4%	.	-10.2%	4.4%	.
16: Cc1ccc(-c2csc(NC(=O)Cn3cnc4c3c(=O)n(C)c(=O)n4C)n2)cc1C
 : 17.6%	19.1%	4.5%	-4.4%	?	6.6%	1.3%	0.8%
17: CCCP(=O)(CC(=O)N(CC)CC)c1ccccc1 (stereo unspecified)
 : -3.8%	3.1%	-19.9%	-10.4%	1.4%	8.3%	1.2%	6.5%
18: COc1ccc(C2CC(=O)C(C=NCCN3CCNCC3)=C(O)C2)cc1OC (stereo unspecified)
 : -0.4%	.	.	-1.0%	-6.2%	3.3%	.	1.3%
19: Cc1nnsc1C(=O)N/N=C/c1ccc(OC(F)(F)F)cc1
 : 4.0%[46.1 µM]	.	3.1%	0.9%	.	.	22.4%	.
20: O=S(=O)(Cc1ccccc1Cl)N1CCCCC1
 : -3.5%[46.1 µM]	16.3%	-9.0%	-9.4%	-0.4%	3.6%	-6.1%	1.3%
21: Cc1nnc(NC(=O)c2cccn(Cc3cccc(Cl)c3)c2=O)s1
 : .	6.7%[46.1 µM]	.	.	-3.3%	.	-21.6%	0.9%
22: COc1ccc(C2c3ccc(O)cc3Oc3ncn(CCCO)c(=N)c32)cc1OC (stereo unspecified)
 : .	.	-6.2%	0.5%	.	5.0%	-16.8%	.
23: Cc1ccc(C(=O)NCC(=O)NCC(=O)OCc2ccc(Cl)cc2)cc1
 : -13.8%	15.3%	5.4%	14.4%	0.5%	-4.6%	30.9%[activator]	-2.9%
24: O=C(O)CCCCCN1C(=O)C(O)=C(C(=O)/C=C/c2ccccc2)C1c1ccccc1[N+](=O)[O-] (stereo unspecified)
 : 12.5%[46.1 µM]	6.6%	-13.0%	-1.0%	.	-0.1%	6.5%	.
25: CCn1c(=O)cc(OCC(=O)O)c2ccccc21
 : -0.1%[46.1 µM]	2.6%	24.3%	2.1%	-7.9%	3.3%	6.4%	1.0%
26: CCN=C1SC(CC(=O)NC(C)c2ccccc2)C(=O)N1CC (stereo unspecified)
 : -6.7%[46.1 µM]	12.7%[46.1 µM]	10.0%	-1.4%	.	3.7%	-4.6%	.
27: CCN(CC)CCNC(=O)CN1C(=O)CSc2ccc(S(=O)(=O)N3CCOCC3)cc21
 : .	1.4%[46.1 µM]	1.1%	.	-1.2%	.	4.4%&-19.6%	1.1%
28: O=C(O)CSc1nnc(C2COc3ccccc3O2)n1-c1ccccc1 (stereo unspecified)
 : 4.3%	-0.8%	-5.2%	7.7%	3.2%	?	9.6%	3.7%
29: Cc1cccc(OCCNc2cc(N3CCN(CCO)CC3)ccc2[N+](=O)[O-])c1
 : ?	15.1%	4.1%	12.6µM*	1.7%	-5.4%	19.7%	-18.7%
30: CC[N+](CC)(CC)CC(=O)Nc1ccc(SC(F)F)cc1
 : 9.3%	-0.3%	0.8%	-2.5%	.	.	-7.3%	.
31: NC(=O)C(c1ccccc1)C1CCCCC1 (stereo unspecified)
 : 0.8%	0.5%	-7.3%	7.8%	6.0%	1.6%	-34.3%	3.1%
32: Cc1cc(C(=O)OCC(=O)NCc2ccc(Cl)cc2)c(C)o1
 : .	.	24.3%	0.6%	.	-0.1%	-5.0%	.
33: O=C(CSc1nc(-c2ccco2)cc(C(F)(F)F)n1)NC1CCCCCCC1
 : -19.7%	?	10.9%	.	.	.	-21.7%	.
34: COc1ccc(CN2CCNC(=O)C2CC(=O)N(C)CC2CCOCC2)c(F)c1 (stereo unspecified)
 : 25.1%	0.0%	11.5%	2.8%	.	2.7%	-6.3%	.
35: O=S(=O)(NCc1cc(-c2ccccc2)no1)c1ccccc1Cl
 : ?	3.6%[46.1 µM]	8.6%	-3.6%	.	.	-0.3%	.
36: COc1ccc(-n2nc3c(N4CCC(C(=O)N5CCCCCC5)CC4)nnc(C)c3c2C)cc1
 : .	.	-4.8%	8.5%	.	-0.5%	?	.
37: Cn1nc(C(=O)Nc2cccc(C(F)(F)F)c2)c2ccccc2c1=O
 : -17.0%	2.3%	12.4%	0.9%	?	-38.0%	-17.4%	-9.7%
38: CC(=O)c1ccc(N2C(=O)N(Cc3cc(C)ccc3C)c3ccccc3S2(=O)=O)cc1
 : .	-10.3%[46.1 µM]	.	.	8.2%	.	0.0%	3.6%
39: COc1cc(/C(C)=N\NC(N)=S)cc(OC)c1OC
 : 6.3%	6.5%	-3.4%	14.9%	1.26µM*	6.6%	0.0%	5.01µM*
40: CCN(CC(=O)Nc1ccccc1C(F)(F)F)C(=O)c1cc2c(s1)CCCCC2
 : -23.8%[46.1 µM]	-19.3%	-6.8%	.	.	.	?	.
41: O=C(NCCc1ccccc1)c1cc2sccc2n1Cc1ccc(F)cc1
 : 12.7%[46.1 µM]	15.9%[46.1 µM]	.	.	-7.0%	.	-9.5%	-4.8%
42: COCCNC(=O)c1cccc(NS(=O)(=O)c2cccc3cccnc23)c1
 : 7.2%	27.1%	-3.7%	-3.4%	-3.3%	-13.6%	-7.7%	0.0%
43: O=C(NCCc1ccc(Cl)cc1Cl)c1cncc(Br)c1
 : .	.	1.3%	-2.9%	.	-12.4%	-21.6%	.
44: O=C(CN1CCN(c2ccccn2)CC1)Nc1ccc(Oc2ccccc2)cc1
 : ?	?	-29.1%	-0.1%	13.6%	-68.7%	-13.6%	-2.4%
45: COc1ccccc1CNc1cc(C)ccc1C
 : 12.1%	1.2%	-16.1%	-0.9%	-5.5%	8.9%	.	1.3%
46: COc1ccc(-n2c(SCC(=O)N3CCC(C(=O)O)CC3)nc3ccccc3c2=O)cc1OC
 : 0.5%[46.1 µM]	7.9%[46.1 µM]	10.9%	1.4%	.	16.5%	-13.8%	.
47: CNC(=O)C(=O)Nc1nc(C23CC4CC(CC(C4)C2)C3)cs1
 : 20.5%[46.1 µM]	21.8%	37.2%	-0.3%	.	4.0%	26.2%	.
48: CC1S/C(=C(\C#N)C(=O)NCc2ccco2)N(c2ccc(F)cc2)C1=O (stereo unspecified)
 : -5.4%	?	2.9%	2.2%	-4.6%	-10.5%	-11.1%	-2.1%
49: COc1ccccc1NCC(=O)NNCC(=O)Nc1ccc(F)c(Cl)c1
 : 20.7%[46.1 µM]	2.4%	21.4%	1.0%	.	0.0%	-4.2%	.
50: CCOC(=O)N1CCN(S(=O)(=O)c2ccc(C(=O)Nc3sc4c(c3C#N)CC(C)(C)NC4(C)C)cc2)CC1
 : .	.	-2.7%	3.7%	.	-11.9%	-2.7%	.

Numbers 1 through 3 of the list above:
Values run as follows: MARV entry inh	LASV entry inh	RE007 growth inh	SARS PLP yeast	Cruzain inh noDet	NS1 function inh	2A StopGo	Cruzain Triton
1: O=C(Cn1nc(C(=O)O)c2ccccc2c1=O)Nc1cccc(Br)c1
 : -9.4%[46.1 µM]	-6.4%[46.1 µM]	-11.2%	-1.0%	.	-31.1%	-15.9%	.
2: CCC(C)NC(=O)CNC(=S)N(Cc1ccccc1)Cc1cccnc1 (stereo unspecified)
 : -14.7%	4.5%	5.5%	-8.2%	10.6%	1.7%	12.7%	1.1%
3: CC(C)c1nc(CNC(=O)C2CCC(=O)N(CCc3cccc(F)c3)C2)cs1 (stereo unspecified)
 : 16.3%	-7.0%	-0.1%	0.7%	.	0.4%	2.0%	.

Bioassay records: PubChem, National Center for Advancing Translational Sciences (NCATS)
